# High-throughput results: PubChem BioAssay, several laboratories
# Sa ugtP lethal – growth inhibition of ugtP-null S. aureus, primary screen, RN4220 ugtP deletion, OD600. 16 h; some inactives read as strong as hits. growth inhibition, % (test concentration not listed). 330,000 tested, 0.54% active. AID 1259309, 2017;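 active = z-score under -3 and OD600 up to 0.15 on both plates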;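 note: plate controls were untreated wells for no effect and antibiotic for full effect; wells of about 80 µL received 100 nL stock; the first replicate is given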
# Sa RN4220 lethal – growth inhibition of S. aureus RN4220, primary screen, OD600 | 330,000 tested, 0.33% active | 16 h | inhibition, % (concentration not given with the values) | AID 1259311, 2017;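 active = z-score of -3 or lower and OD600 up to 0.18 on both plates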;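 note: plate controls were untreated cells for no effect and reference antibiotic for full effect; stock transfer was 100 nL into about 80 µL; one replicate is shown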
# Bead autofluor – flagged as autofluorescent in microsphere protease counterscreen; 360,000 tested, 3.1% active; compound autofluorescence counterscreen, microsphere flow cytometry; hits give high values; fluorescence intensity (test concentration not listed);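 active = at least 3 SD above the mean of all compounds, about 16000 in these data; inconclusive = too few beads counted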;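 note: 100 nL of 1 mM stock went into each well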
# Mtb hypoxia inh – PubChem AID 1159583; 300,000 tested, 0.1% active; fluorescence inhibition, % (test concentration not listed); M. tuberculosis hypoxia-regulated fluorescent reporter, fluorescence;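 active = 35 to 45% if threefold the growth effect, above 45% if 1.5-fold the growth effect; inactive = the rest, general growth blockers included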;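 note: wells of about 50 µL received 100 nL stock; 0% = vehicle wells and 100% = reference inhibitor wells; whole bacteria with a GFP reporter of the hypoxia response; strong numbers were not always called active; many hits fall short of the cut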
# PrP 5UTR inh – inhibition of PrP 5' UTR reporter expression. cell-based PrP 5' UTR mRNA reporter, plate reader. 340,000 tested, 0.35% active. inhibition, % (concentration not given with the values). AID 488862, 2010;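 active = every replicate at 50% or more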;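 note: 0 = median of the neutral control wells; tested in H4 reporter cells; numbers are from one replicate; inactives centre near -14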
# BJeLR viability – MLPCN primary cell-based screen for lethality selective to Ras in HRASV12 cells; BJeLR (HRASV12) viability, CellTiter-Glo ATP luminescence, 48 h; reference of the scale not given here; inhibition, % (no concentration beside the values); 300,000 tested, 0.17% active; AID 1554, 2009;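 active = replicate mean above 50%; inconclusive = above 50% but judged a plate artefact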;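 note: 50 nL library stock added to about 25 µL; numbers are from one replicate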
# Mtb hypoxia inh growth – further read-out of Mtb hypoxia inh, marked with its call; growth inhibition, %; measured here: M. tuberculosis growth (absorbance);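 0% = vehicle and 100% = reference antibiotic; read after six days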
# The depositor's hits bear a star; u = inconclusive; x = not tested or not shown.
item	compound	Sa ugtP lethal	Sa RN4220 lethal	Bead autofluor	Mtb hypoxia inh	Mtb hypoxia inh growth	PrP 5UTR inh	BJeLR viability
1	CC1=C(C(=O)OCc2ccccc2)C(c2ccc([N+](=O)[O-])cc2)NC(=O)N1CCCCCC(=O)O (configuration not stated)	-1.1	6.5	3634	-2.8	-6.2	-16.1	3.8
2	CCCCCn1c(SCc2ccncc2)nc2cc(C(=O)NCc3ccco3)ccc2c1=O	-28.9	-2.1	19744*	-6.4	6.5	-9.7	-3.6
3	O=C(/C=C/c1ccc([N+](=O)[O-])cc1)c1cccnc1	7.6	17.4	2117	11.4	3.8	-19.9	7.6
4	CN(C/C(O)=C(\C#N)c1ccccc1)C1CCCCC1	5.0	3.3	2547	x	x	-3.7	-13.6
5	COc1ccc2cc3cc(C(=O)NCc4ccco4)oc3nc2c1	6.7	3.1	4386	-0.5	6.1	-20.7	-11.3
6	O=C1NC(=O)C2(COC(c3ccccc3Cl)OC2)S1 (configuration not stated)	-2.4	4.5	2290	3.0	2.0	-17.1	-3.8
7	CN1CCN(C(=O)C2=C[C@@H](C3CCCCC3)C[C@@H](OCCCCO)O2)CC1	x	x	3984	x	x	-0.7	8.7
8	C/C(N)=C(/C#N)C(=O)CSc1nc2ccccc2c(=O)n1-c1ccc(C)cc1	7.4	-1.2	x	7.6	1.3	x	-6.0
9	O=C(NCc1n[nH]c(=S)n1-c1ccccc1)c1ccco1	9.9	2.2	19724*	5.7	4.6	-15.0	2.2
10	Cc1cc(=O)oc(C)c1C(=O)Nc1cnc2ccccc2c1	4.7	8.1	3197	3.0	6.0	-5.9	-5.2
11	Cc1ncsc1C(=O)N1N=C2/C(=C/c3ccccc3)CCCC2C1c1ccccc1 (configuration not stated)	-19.0	-15.6	7965	-19.1	-9.2	x	11.2
12	CC(=O)Nc1ccc(S(=O)(=O)N2CCC(NC(=O)C(Cc3ccccc3F)NC(C)=O)CC2)cc1 (configuration not stated)	5.3	-1.8	3466	4.2	-0.8	-17.5	-2.6
13	CCCC(=NNC(=O)CNC(=O)c1ccc(Cl)cc1)c1ccccc1	4.6	-2.5	x	-2.8	9.4	x	x
14	COc1cc2nc(CN(C)Cc3ccc(OC)c(OC)c3OC)[nH]c(=O)c2cc1OC	4.9	0.6	5858	-7.9	-3.4	-24.0	-14.0
15	O=C(Nc1ccc(F)cc1)C1CCCN1S(=O)(=O)c1ccc(Br)cc1 (configuration not stated)	9.5	3.5	5425	2.5	-4.4	3.5	-9.0
16	CCC1CCCCN1S(=O)(=O)Cc1ccccc1Cl (configuration not stated)	4.9	10.5	5022	1.6	16.2	-35.3	-13.0
17	Nc1ccc(Br)cc1-c1nc2ccccc2[nH]c1=O	11.3	5.3	4211	-3.7	2.9	-37.9	-7.0
18	Cc1ccc(C)c(N(CC(=O)N2CCCC2)S(C)(=O)=O)c1	x	x	3799	x	x	-28.6	-10.5
19	COc1ccc(C=NNC(=S)Nc2c(C)n(C)n(-c3ccccc3)c2=O)cc1OC	2.7	1.6	x	-1.5	7.5	x	x
20	CCN(CC(=O)NCc1ccc(F)cc1)S(=O)(=O)c1ccc(Cl)s1	-5.8	-3.3	6578	-5.0	2.5	-31.8	x
21	CC(C)c1nc(SCC(=O)Nc2cccc(C(=O)O)c2)c2c3c(sc2n1)CCCC3	48.3	12.8	6027	4.5	12.4	-18.2	-10.6
22	C=CCOc1cccc(CNn2nnnc2N)c1	13.2	1.6	2112	15.0	9.2	-15.3	-3.2
23	O=[N+]([O-])c1ccc(C=NNc2nc3ccccc3o2)cc1	0.3	1.7	x	0.5	0.8	x	x
24	CNC(=S)N(CCc1ccc(OC)c(OC)c1)C1CC(=O)N(c2ccccc2)C1=O (configuration not stated)	-1.2	2.6	4206	5.2	7.0	6.2	4.3
25	COc1cccc(-c2c(C(=O)N/N=C(\C)c3cccnc3)nnn2-c2nonc2N)c1	x	x	5867	x	x	-32.1	0.5
26	COc1ccc(C)cc1NC(=O)C(C)N(c1ccc(C)cc1)S(C)(=O)=O (configuration not stated)	3.9	2.8	11257	4.1	1.0	-28.9	4.2
27	O=C(NNc1ccc(C2CCCCC2)cc1)C(O)(c1ccccc1)c1cccs1 (configuration not stated)	68.1	-5.9	15961	8.9	6.4	-16.9	-12.6
28	COC(=O)c1ccc(S(=O)(=O)N2CCc3ccccc32)cc1	-2.8	3.5	4066	5.9	0.0	-10.7	24.3
29	CC(=O)Nc1cc(-c2ccccc2)ccc1O	-2.5	2.0	9148	2.4	7.6	-42.0	3.3
30	O=C(Nc1ccccc1C(=O)NN=Cc1ccco1)c1ccccc1Cl	9.1	-0.4	x	-1.0	4.5	x	x
31	O=C(CN1CCN(S(=O)(=O)/C=C/c2ccccc2)CC1)NC(=O)NCc1ccco1	-4.0	4.5	6249	-4.7	6.0	-6.1	-7.5
32	COc1cc2c(cc1C1C(C#N)=C(N)OC3=C1C(=O)CC(C)(C)C3)OCO2 (configuration not stated)	5.1	3.8	3125	12.7	1.0	-17.3	2.3
33	O=C(CN1C(=O)NC2(CCCC2)C1=O)Nc1nc2ccc(F)cc2s1	-0.8	-1.3	u	9.4	1.0	-34.0	-1.7
34	COc1ccc(OC)c(CCNC(=O)c2sc3nc4n(c(=O)c3c2C)CCC4)c1	3.0	6.1	5426	16.4	13.2	-12.0	-0.2
35	O=C(c1ccc(S(=O)(=O)N2CCCCCC2)cc1)N1CCN(c2ccccc2)CC1	15.5	3.1	6206	2.8	-7.5	-13.7	-2.9
36	C=CCn1c(SCC(=O)c2ccccc2)nnc1-c1ccc2c(c1)OCO2	-20.3	-2.3	3452	2.5	8.0	-18.2	x
37	CC(=O)c1sc(N/N=C/c2ccc(C(C)C)cc2)nc1C	x	x	4312	x	x	-98.2	-2.6
38	O=C1CCCc2c1cc(C(=O)NC1CCSC1=O)c(=O)n2-c1ccccc1 (configuration not stated)	-3.1	-13.1	x	5.0	0.5	-13.3	3.0
39	CC(=O)Nc1ccc(S(=O)(=O)Nc2nc3cc4c(cc3nc2Cl)OCCO4)cc1	3.8	5.6	3264	6.6	1.1	-14.6	1.1
40	O=C(COc1cccc(C(F)(F)F)c1)Nc1cccc(S(=O)(=O)NC2=NCCCCC2)c1	-5.2	0.5	3854	5.2	11.2	-16.0	x
41	CCn1c(COc2ccccc2C)nnc1SCC(=O)Nc1cc(C)on1	1.6	-1.5	15160	-0.5	-5.3	-14.1	3.9
42	O=C(Cn1ccc(C(F)(F)F)n1)N=Nc1c(O)[nH]c2ccc(Br)cc12	x	x	4419	x	x	-12.7	0.3
43	COc1ccc(N(CC(=O)N2CCc3ccccc32)S(=O)(=O)c2c(C)noc2C)cc1	1.3	0.0	15987	6.0	13.1	-20.8	1.7
44	Cn1nc(C(=O)N2CCCC2)c2ccccc2c1=O	-2.1	5.7	6149	0.8	-6.4	-26.0	2.0
45	CC(C)c1ccc(/C=C/C(=O)NCc2ccc(S(N)(=O)=O)cc2)cc1	2.1	4.4	4280	13.2	4.4	-23.9	-4.4
46	O=C(CSc1nnc(NC(=O)c2ccco2)s1)Nc1ccccc1F	-0.9	2.5	3966	7.6	-3.3	-21.2	-5.9
47	CC(C)C[C@@H](CC#N)N1CCN(Cc2ccccc2)CCC1=O	x	x	3837	x	x	-20.3	-2.7
48	CC(C)(C)C(=O)Nc1cccc(-c2nnc(-c3cccc(NC(=O)C(C)(C)C)c3)o2)c1	-15.5	6.7	3374	-2.0	-0.9	59.3*	4.0
49	COC(=O)Cc1ccc(OC(=O)CCS(=O)(=O)c2ccc(C)cc2)cc1	5.8	5.3	5068	-1.8	-4.9	-31.3	8.5
50	COc1cccc2cc(C(=O)NCC3CCCO3)c(=O)oc12 (configuration not stated)	5.5	5.8	3351	4.3	12.2	-18.6	-4.2
51	CS(=O)(=O)c1ccc(-c2cccc(NC(=O)c3ccco3)c2)nn1	0.6	-0.2	u	-5.9	7.4	2.4	-1.0
52	Cc1cnc(NC(=O)c2ccc3c(c2)C(=O)N(Cc2ccco2)C3=O)s1	0.1	2.9	3434	6.2	9.9	-17.7	-2.7
53	Cc1cc(N2CCN(CC(O)C(F)(F)F)CC2)c2ccccc2n1 (configuration not stated)	13.9	-1.4	3976	-1.8	11.3	7.0	-6.9
54	CCOC(=O)CC1C(=O)NCCN1C(=O)c1cccc(C(F)(F)F)c1 (configuration not stated)	5.5	3.4	2498	2.4	8.8	-21.5	-3.8
55	COc1ccc(-c2cc(C(F)(F)F)nc(NC3CCCC3)n2)cc1OC	-2.2	-3.5	3270	-3.3	-5.7	-5.6	-3.4
56	O=C(O)c1ccc(-c2nc3scc(-c4ccccc4)c3c(=O)[nH]2)cc1	5.9	4.6	u	-2.5	1.5	-0.7	4.4
57	CCN(CC)C(=O)c1ccccc1NS(=O)(=O)c1ccc(OC)c(C(=O)N2CCOCC2)c1	16.0	1.7	3727	10.9	9.1	-26.6	-10.1
58	COc1ccc(N2CCN(C(=O)Cn3ncc4c([nH]c5ccccc54)c3=O)CC2)cc1	5.3	3.9	5154	1.2	2.0	7.8	3.3
59	O=C(O)c1cccc(S(=O)(=O)N2CCCC2)c1	8.0	3.3	15834	10.3	8.3	-25.0	-3.1
60	CCOc1ccc(S(=O)(=O)NCCC(=O)Nc2cccc(C(=O)OC)c2)cc1	3.5	1.7	2995	5.1	-6.1	-16.1	3.8

# (more compounds)
item	compound	Sa ugtP lethal	Sa RN4220 lethal	Bead autofluor	Mtb hypoxia inh	Mtb hypoxia inh growth	PrP 5UTR inh	BJeLR viability
61	COc1ccc(Br)cc1C=NNC(=O)C(c1ccncc1)N1CCOCC1 (configuration not stated)	9.2	1.4	x	1.8	4.2	x	x
62	Cc1ccc(/C=N/NC(=O)CNC(=O)COc2ccccc2)o1	x	x	2525	x	x	-7.3	-15.4
63	C[C@@H](C(=O)Nc1ccccc1N1CCOCC1)N1C(=O)C2CC=CCC2C1=O (some centres not stated)	x	x	2795	x	x	-15.6	2.3
64	CC(=O)c1cc(NC(=O)c2ccc(Cl)cc2)c(=O)oc1/C=C/N(C)C	10.9	3.2	25493*	x	x	-28.1	-3.9
65	Cc1cccc(N(C(=O)Cn2nnc3ccccc32)C(C(=O)NCc2ccco2)c2ccncc2)c1 (configuration not stated)	11.5	1.1	5848	x	x	-7.4	-7.1
66	c1ccc(CNc2ncnc3[nH]ncc23)cc1	3.6	1.2	4053	8.1	4.7	-17.0	x
67	CC(=O)N(Cc1ccco1)c1nc(C(=O)Nc2ccc(Cl)cc2)c(C)s1	-1.9	-5.4	8116	-6.3	-9.9	-33.5	-5.1
68	CC(=C/C(=O)O)/C=C/c1cccs1	x	x	3274	x	x	1.9	1.8
69	Cc1noc(C(=O)Nc2cccc(Cl)c2)c1Cl	-3.3	2.7	2956	6.9	-3.0	-37.4	11.2
70	CCCc1cc(C(=O)Nc2ccc(C(=O)c3ccc(F)cc3)cc2)n(C)n1	-7.3	-3.5	5860	-2.6	-3.9	-18.6	3.0
71	O=C(CCN1C(=O)/C(=C\c2ccccc2F)SC1=S)N1CCCCC1	-3.5	0.7	u	12.2	27.7	-3.9	20.8
72	CC1=CC2=NC(=O)CC(C)(C(=O)N(CC(=O)NC3CCCC3)c3ccccc3C)N2C=C1 (configuration not stated)	8.2	5.0	4321	9.2	12.6	-0.1	-2.3
73	O=C(NC1(C(F)(F)F)Oc2ccc(Cl)cc2O1)N1CCC2(CC1)OCCO2 (configuration not stated)	-4.9	2.4	4037	7.3	2.2	-3.1	-12.4
74	N#Cc1ccccc1Sc1ccccc1C(=O)NCC(c1ccco1)N1CCCC1 (configuration not stated)	-2.1	-7.9	7051	-1.6	-3.0	-18.5	3.6
75	COc1ccc(S(=O)(=O)N2CCC(C(=O)NC3CCCCC3)CC2)cc1OC	6.1	-1.9	x	2.2	5.4	-16.9	1.0
